High-throughput results deposited in PubChem BioAssay by several laboratories.
UUG fidelity: modulators of yeast start codon fidelity, primary screen, whole organism, S. cerevisiae, single point, plate reader; S. cerevisiae UUG-firefly luciferase reporter, luminescence/redox ratio; activity score, % at 18.7 µM; 0.13% of 350,000 active; AID 602363, 2012;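 active = replicate mean at a twofold rise or more, about +100% in these data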;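 note: firefly luciferase made from a UUG start codon reports start codon fidelity; reporter light over untreated wells divided by growth signal over untreated wells; some hits fall short of that in this replicate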
MT1-MMP act inh: blockers of MT1-MMP proenzyme processing, primary screen, HT1080 RFP-PRO-GFP cells, GFP/RFP fluorescence. GFP/RFP ratio change, % at 20 µM. 0.061% of 360,000 active. GFP/RFP ratio fluorescence, overnight; percent of plate control window, DMSO zero. Matrix metalloproteinase-14 (Homo sapiens), P50281;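 active = GFP/RFP ratio change of at least 30% with cell ATP level not reduced by more than half and red fluorescence within 50% of control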; note: strong numbers were not always called active
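Assay system: HT1080 RFP-PRO-GFP cells. Benchmarks: DMSO vehicle wells and RFP-L50D-GFP reporter cell wells. Times: overnight cell settling, then overnight compound exposure, 37 °C, 5% CO2. Compound: 20 µM single dose, 1% DMSO. Read-out basis: GFP/RFP fluorescence ratio.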
MT1-MMP act inh RFP: further read-out of MT1-MMP act inh, marked with its call; RFP signal change, %; measured here: RFP expression control read;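 0 = vehicle wells; hits needed this value within 50% of zero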
Starred values were filed as active, the others as inactive; & = joins results of further samples. The list is partial (hit frequency here may not be typical).

1) CC1(C(=O)NS(=O)(=O)Cc2ccccc2)CCN1C(=O)Cc1ccccc1 (stereo not given)
2) Cc1ccc(CN2CCN(C(=O)/C=C/[C@H]3O[C@@H](n4cc(C)c(=O)[nH]c4=O)C[C@@H]3O)CC2)cc1
3) Cc1ccc([C@H]2N[C@]3(CCCN(Cc4ccc(C(F)(F)F)cc4)C3=O)[C@H]3C(=O)N(C)C(=O)[C@@H]23)cc1
4) C=CC(=O)Nc1ccc(Nc2ccnc(Nc3ccc(N4CCN(C)CC4)cc3)n2)cc1
5) Cc1ccc(C)c(OCCC(=O)N2CCN(S(=O)(=O)c3cc(F)ccc3F)CC2)c1
6) Cc1ccc(NC(=O)C2CSC3(C)CCC(=O)N23)cc1S(=O)(=O)N1CCOCC1 (stereo not given)
7) CCNC(=O)C1CCCN(C(=O)c2ccccc2OC(F)(F)F)CC1 (stereo not given)
8) C[C@@H]1CN([C@H](C)CO)C(=O)c2cccc(NS(=O)(=O)c3ccccc3)c2O[C@H]1CN(C)C
compound no.	1	2	3	4	5	6	7	8
UUG fidelity	-12	-10	7	-6	-1	-28	-13	-14&-7
MT1-MMP act inh	-2	1	-4	-17	-1	1	5	0
MT1-MMP act inh RFP	1	-2	0	-6	-5	4	-1	0

9) COc1ccc([C@H]2N[C@]3(CCCN(Cc4ccc(Cl)cc4)C3=O)[C@H]3C(=O)N(Cc4ccccc4)C(=O)[C@@H]23)cc1
10) Cc1ccnc(NC(=O)c2ccc(OCc3c(C)noc3C)cc2)c1
11) CC(Oc1ccccc1Cl)C(=O)Nc1ccc(S(=O)(=O)N2CCN(C)CC2)cc1 (stereo not given)
12) Cc1cccc(S(=O)(=O)N(C)C[C@H]2OCc3cnnn3CCCC(=O)N([C@@H](C)CO)C[C@H]2C)c1
13) COc1ccc([C@H]2N[C@]3(CCCN(Cc4ccccc4)C3=O)[C@H]3C(=O)N(C)C(=O)[C@@H]23)cc1
14) COc1ccc(F)cc1C(=O)COC(=O)c1n[nH]c(=O)c2ccccc12
15) COc1ccc2nc3n(c(=O)c2c1)-c1ncccc1C(=O)NC3C (stereo not given)
16) CCOC(=O)C1=C(CC)Nc2ccccc2N=C1NC(=O)c1cc(C)on1
compound no.	9	10	11	12	13	14	15	16
UUG fidelity	-11	-14	-16	-8&-3	-13	1	-3	-8
MT1-MMP act inh	1	0	2	0	6	0	-3	-2
MT1-MMP act inh RFP	-7	-6	1	5	8	6	2	1

17) COc1ccc(C(=O)Nc2cccc(S(=O)(=O)NC3=NCCCCC3)c2)cc1
18) COc1cccc(OC)c1C(=O)OCC(=O)NCc1ccco1
19) Cc1ccccc1OCC(=O)N(Cc1ccco1)c1c(N)n(Cc2ccccc2)c(=O)[nH]c1=O
20) CC(C)(C)c1ccc(C(=O)NC(=O)COC(=O)CCS(=O)(=O)c2ccccc2)cc1
21) CC(C)N(C(=O)CSc1nnc(NC2CC2)s1)c1ccccc1
22) COc1ccc(C(=O)OCC(=O)N2CCOCC2)cc1S(=O)(=O)N1CCOCC1
23) CSCCC(NC(=O)c1ccc(Cl)cc1Cl)C(=O)NCC(c1cccs1)N(C)C (stereo not given)
24) Cc1ccc(SCC(=O)OCC(=O)NCCc2ccccc2)cc1C
compound no.	17	18	19	20	21	22	23	24
UUG fidelity	4	-7	-12	-16	-9	6	-19	2
MT1-MMP act inh	9	-3	-5	3	2	0	1	3
MT1-MMP act inh RFP	0	4	0	1	0	0	-2	4

25) CC(C)=CCC/C(C)=C/COc1c2occc2cc2ccc(=O)oc12
26) N#Cc1cccc(NC(=O)c2cc(C3CCCCN3C(=O)c3ccc4c(c3)CCO4)on2)c1 (stereo not given)
27) CCOc1ccc(/C(O)=C2\C(=O)C(=O)N(CCN(C)C)C2c2cc(OC)ccc2OC)cc1Cl (stereo not given)
28) CC(C)CN(C(=O)COC(=O)c1ccccc1SCC(=O)N1CCCC1)C1CCS(=O)(=O)C1 (stereo not given)
29) CCOC(=O)C1=C(COC(=O)CCNS(=O)(=O)c2ccc(C)c(C)c2)NC(=O)NC1C (stereo not given)
30) Cc1nc(-c2ccc(F)cc2)c(CC(=O)N2CCN(S(=O)(=O)c3cccc([N+](=O)[O-])c3)CC2)s1
31) CCOC(=O)C1=CCN(S(=O)(=O)c2ccc(C)cc2)C1c1cccc(Br)c1 (stereo not given)
32) CCCCn1nc(C(=O)N(C)C2CCCCC2)c2ccccc2c1=O
compound no.	25	26	27	28	29	30	31	32
UUG fidelity	-16	-13	-9	-4	-22	-11	-15	-2
MT1-MMP act inh	-5	0	13	10	-2	-11	3	-2
MT1-MMP act inh RFP	-3	-3	9	1	0	-3	-8	-2

An excerpt of these results, with tabs:
No.	Molecule	UUG fidelity	MT1-MMP act inh	MT1-MMP act inh RFP
25	CC(C)=CCC/C(C)=C/COc1c2occc2cc2ccc(=O)oc12	-16	-5	-3
26	N#Cc1cccc(NC(=O)c2cc(C3CCCCN3C(=O)c3ccc4c(c3)CCO4)on2)c1 (stereo not given)	-13	0	-3
27	CCOc1ccc(/C(O)=C2\C(=O)C(=O)N(CCN(C)C)C2c2cc(OC)ccc2OC)cc1Cl (stereo not given)	-9	13	9
28	CC(C)CN(C(=O)COC(=O)c1ccccc1SCC(=O)N1CCCC1)C1CCS(=O)(=O)C1 (stereo not given)	-4	10	1
29	CCOC(=O)C1=C(COC(=O)CCNS(=O)(=O)c2ccc(C)c(C)c2)NC(=O)NC1C (stereo not given)	-22	-2	0
30	Cc1nc(-c2ccc(F)cc2)c(CC(=O)N2CCN(S(=O)(=O)c3cccc([N+](=O)[O-])c3)CC2)s1	-11	-11	-3

(listing goes on)
33) O=C(OCc1nnc(-c2cccs2)o1)c1cccnc1Cl
34) CCNC(=O)C1CCCN(Cc2ccc(C)c3ccccc23)CC1 (stereo not given)
35) COC(=O)C[C@@H]1C[C@H]2c3cc(NS(C)(=O)=O)ccc3O[C@H]2[C@H](CO)O1
36) Cc1cc(=O)[nH]c(NN=Cc2c(Cl)cccc2Cl)n1
37) Cc1csc(NC(=O)C2CC(=O)N(c3ccc4c(c3)OCCO4)C2)n1 (stereo not given)
38) O=C(CNC(=O)c1ccc(Cl)cc1Cl)NCc1ccccn1
39) CCOC(=O)c1ccc(S(=O)(=O)N2CCC(C(=O)N3CCN(c4ccccc4OC)CC3)CC2)cc1
40) CC[C@]1(C(=O)OC)[C@H]2C(=O)N(Cc3ccccc3)C(=O)[C@H]2[C@H]2CN=C(SCc3ccc(Cl)cc3)N21
compound no.	33	34	35	36	37	38	39	40
UUG fidelity	-6	1	7	-13	7	-19	-7	-11
MT1-MMP act inh	-1	4	6	-4	3	3	19	-1
MT1-MMP act inh RFP	3	4	10	-11	2	3	-4	-6

41) O=C(CSc1ncnc2sccc12)NCc1ccc2c(c1)OCO2
42) Cc1ccc(NC(=O)CN(C)CC(=O)N(C)Cc2ccccc2)cc1
43) O=C(Nc1c(-c2ccc3c(c2)OCO3)[nH][nH]c1=O)c1cnccn1
44) COc1ccc(S(=O)(=O)N2CCN(C(=O)CCSc3ccccc3)CC2)cc1
45) O=C(COc1ccc(Cl)cc1Cl)OCC(=O)c1ccc[nH]1
46) O=C1CSC(c2ccc(Cl)c(Cl)c2)N1c1nccs1 (stereo not given)
47) CCN(C(=O)COC(=O)Cc1cccc2ccccc12)C1CCS(=O)(=O)C1 (stereo not given)
48) COc1ccccc1N1CCN(C(=O)C2CCN(S(=O)(=O)c3ccccc3F)CC2)CC1
compound no.	41	42	43	44	45	46	47	48
UUG fidelity	-13	-5	-35	-26	-21	-27	-6	19
MT1-MMP act inh	-4	3	3	2	-3	6	1	8
MT1-MMP act inh RFP	2	1	5	-3	5	3	1	1

Two successive compounds already listed, quoted:
1) CC1(C(=O)NS(=O)(=O)Cc2ccccc2)CCN1C(=O)Cc1ccccc1 (stereo not given)
2) Cc1ccc(CN2CCN(C(=O)/C=C/[C@H]3O[C@@H](n4cc(C)c(=O)[nH]c4=O)C[C@@H]3O)CC2)cc1
compound no.	1	2
UUG fidelity	-12	-10
MT1-MMP act inh	-2	1
MT1-MMP act inh RFP	1	-2
